Screens as filed in PubChem.
HCMV UL50-53 inh: cytomegalovirus nuclear egress complex inhibition. HTRF UL50-UL53 interaction, normalized percent inhibition. hit rate 0.15% among 190,000. inhibition, % (no concentration beside the values);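 active = both replicates at 50% or more, plus weaker picks with an unusually low signal ratio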;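 note: stock transfer was 100 nL into about 20 µL; 0% = negative control wells and 100% = wells with untagged competitor protein; inactives centre near -12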
GIV-Gai inh: inhibitors of GIV GBA-motif binding to rat Galpha-i3; AID 1224905; hit rate 0.42% among 210,000; P08753; percent of control (FP), % (no concentration beside the values); Galpha-i3/FITC-GIV peptide fluorescence polarization, 90 min; stronger effect = lower value; scaled: aluminum fluoride 0%, vehicle 100%;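 active = replicate mean at 85% of control or lower, very high polarization wells dropped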;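 note: wells of about 15 µL received 100 nL stock; the first replicate is given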
Target sequence (P08753 whole entry, looked up): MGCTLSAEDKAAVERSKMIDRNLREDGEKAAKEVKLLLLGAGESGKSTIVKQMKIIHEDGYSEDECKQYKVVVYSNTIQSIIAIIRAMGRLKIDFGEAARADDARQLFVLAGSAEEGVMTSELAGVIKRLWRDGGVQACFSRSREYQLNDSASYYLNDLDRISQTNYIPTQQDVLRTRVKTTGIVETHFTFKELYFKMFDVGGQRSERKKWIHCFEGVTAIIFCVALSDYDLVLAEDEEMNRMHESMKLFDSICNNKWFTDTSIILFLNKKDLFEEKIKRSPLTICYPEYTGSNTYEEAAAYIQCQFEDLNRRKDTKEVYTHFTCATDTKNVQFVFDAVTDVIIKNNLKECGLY
Sa growth 42C: S. aureus growth inhibition; S. aureus RN4220 growth, OD600, 20 h, 42 °C; stronger effect = lower value; relative growth, % (no concentration beside the values); hit rate 0.53% among 170,000; AID 720641;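 active = growth at 42 °C up to 50% and 20 or more points under that at 30 °C, or under 10% at both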;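 note: 300 nL library stock went into each well; scaled to the means of positive and negative controls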
Sa growth 42C second temp: second read-out of Sa growth 42C, no call of its own (marks repeat the call); relative growth, %; measured here: growth at 30 °C;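 optical density after 20 h as mean of two plates; 100% = untreated growth and lower means inhibition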
Numbers without * were called inactive; x = no result given; & = joins results of further samples.

Start of the data: the first 13 compounds, to show the layout:
SMILES	HCMV UL50-53 inh	GIV-Gai inh	Sa growth 42C	Sa growth 42C second temp
O=C(CN1C(=O)C2CC=CCC2C1=O)N1CCSC1=NCc1ccccc1 (stereo unspecified)	2	x	88	93
Cc1ccc2sc(N(Cc3cccnc3)C(=O)CCS(=O)(=O)c3ccccc3)nc2c1C	x	108	94	98
O=C(CCn1c(=O)sc2cc(S(=O)(=O)N3CCOCC3)ccc21)N1CCCC1	8	98	x	x
Cc1cc(C)n2nc(SCc3ccccc3C(=O)N3CCN(c4ccc(F)cc4)CC3)nc2n1	-11	x	98	92
C=CCN(C(=O)c1ccccc1SCC(=O)NCc1ccco1)c1nc2c(s1)CCCC2	-1	x	98	89
CCOC(=O)C(C)Nc1ncnc2onc(C)c12 (stereo unspecified)	-8	105	86	90
CCOC(=O)c1c(CNCc2ccccc2)n(-c2ccccc2)c2cc(Br)c(OC)cc12	-15	97	x	x
Cn1c2c(c(=O)n(C)c1=O)C(c1cc(Br)ccc1F)CC(=O)N2 (stereo unspecified)	-2	99	107	93
Cc1cc(C)c(C#N)c(SCC(=O)OC(C)C)n1	0	x	81	89
COc1ccc(C)cc1N(C)C(=O)CCc1nc(-c2ccccc2F)no1	-4	102	115	79
Cc1nnc2c(SCC(=O)NC(C)C)nc3ccccc3n12	-44	111	x	x
CCc1cc2c(SCC(=O)N(C)C3CCS(=O)(=O)C3)ncnc2s1 (stereo unspecified)	7	x	100	95
Cc1ccc2cccc(SC(=O)NCC3CCCO3)c2n1 (stereo unspecified)	-35	x	107	102

The list itself (from the top)
SMILES	HCMV UL50-53 inh	GIV-Gai inh	Sa growth 42C	Sa growth 42C second temp
O=C(CN1C(=O)C2CC=CCC2C1=O)N1CCSC1=NCc1ccccc1 (stereo unspecified)	2	x	88	93
Cc1ccc2sc(N(Cc3cccnc3)C(=O)CCS(=O)(=O)c3ccccc3)nc2c1C	x	108	94	98
O=C(CCn1c(=O)sc2cc(S(=O)(=O)N3CCOCC3)ccc21)N1CCCC1	8	98	x	x
Cc1cc(C)n2nc(SCc3ccccc3C(=O)N3CCN(c4ccc(F)cc4)CC3)nc2n1	-11	x	98	92
C=CCN(C(=O)c1ccccc1SCC(=O)NCc1ccco1)c1nc2c(s1)CCCC2	-1	x	98	89
CCOC(=O)C(C)Nc1ncnc2onc(C)c12 (stereo unspecified)	-8	105	86	90
CCOC(=O)c1c(CNCc2ccccc2)n(-c2ccccc2)c2cc(Br)c(OC)cc12	-15	97	x	x
Cn1c2c(c(=O)n(C)c1=O)C(c1cc(Br)ccc1F)CC(=O)N2 (stereo unspecified)	-2	99	107	93
Cc1cc(C)c(C#N)c(SCC(=O)OC(C)C)n1	0	x	81	89
COc1ccc(C)cc1N(C)C(=O)CCc1nc(-c2ccccc2F)no1	-4	102	115	79
Cc1nnc2c(SCC(=O)NC(C)C)nc3ccccc3n12	-44	111	x	x
CCc1cc2c(SCC(=O)N(C)C3CCS(=O)(=O)C3)ncnc2s1 (stereo unspecified)	7	x	100	95
Cc1ccc2cccc(SC(=O)NCC3CCCO3)c2n1 (stereo unspecified)	-35	x	107	102
CC(C(=O)Nc1ccccc1C#N)N(C)Cc1nc2ccccc2c(=O)[nH]1 (stereo unspecified)	-37	x	80	85
O=C1CC(c2ccco2)CC2=C1C(c1ccccc1)C1=C(N2)c2ccccc2C1=O (stereo unspecified)	-51	99	92	84
N#CC(Nc1ccc(C(F)(F)F)cc1)c1ccccc1 (stereo unspecified)	-6	102	104	96
COc1ccc(Cn2c(SCC(=O)Nc3cccc(Cl)c3)nc3ncccc3c2=O)cc1	2	105	93	89
O=C(Nc1cccc2ccccc12)N1CCC(Nc2nc3ccccc3o2)CC1	-18	108	108	85
Cc1ccsc1C=Nc1ccc(C(N)=O)cc1	4	105	94	98
Cc1ccccc1-n1nc(C)c2c(C(=O)NN)cc(-c3ccncc3)nc21	-19	x	90	75
CC(C)(C)NC(=O)CSc1nc(-c2ccc(F)cc2)cc(C(F)(F)F)n1	-5	105	103	98
CCn1c(CCC(=O)N2CCN(c3ccccn3)CC2)nc2cc(S(N)(=O)=O)ccc21	-9	x	99	88
Cc1ccc(-n2ccnc(NCc3ccc4c(c3)OCO4)c2=O)cc1	-42	104	x	x
CCOC(=O)/C(C#N)=C/c1ccc(-c2ccc(Cl)c(C(=O)OC)c2)o1	0	65*	95	117
CCOC(=O)c1cc(C#N)c(C)nc1N(CC)CC	x	116	108	98
COC(CNC(=O)CN1CCN(Cc2ccc(C)cc2)C1=O)OC	-4	108	110	97
Cc1ccc(N2CC(NC(=O)/C=C\c3ccc4c(c3)OCO4)CC2=O)cc1 (stereo unspecified)	x	100	120	86
CCc1ccc(OC(=O)CSc2nc(-c3ccccc3)nc3cc(=O)[nH]n23)cc1	-17	102	x	x
N#Cc1nc(-c2ccc(S(=O)(=O)N3CCCCC3)cc2)oc1NC1CC1	-29	103	x	x
CC(C)c1c(Br)c(=O)oc2c3c4c(cc12)CCCN4CCC3	-43	147	88	71
COc1ccc(S(=O)(=O)N2CCc3cc4cccc(C)c4nc32)cc1OC	-18	99	x	x
COc1cc2cc(C3CC(c4ccco4)=NN3C(C)=O)c(Cl)nc2cc1OC (stereo unspecified)	0	106	104	91
CC(C)C(NC(=O)c1cccs1)C(=O)NC1CCCCC1 (stereo unspecified)	-20	x	86	91
Cc1ccc(C=Nc2ccc(Br)cc2)cc1	x	100	115	91
COc1ccc(-n2c(C(C)N3CCCCC3)n[nH]c2=S)cc1 (stereo unspecified)	-5	x	90	96
COc1ccc(CCN2C(=O)C=CC2=O)cc1	-15	x	66	42
COc1cc(OC)c(NC(=O)Nc2sc3nc4n(c(=O)c3c2C)CCC(C)CC4)cc1Cl (stereo unspecified)	-11	102	109	87
CC1CCN(CCCNC(=O)c2cc3c(=O)n(C)c4ccccc4c3s2)CC1	x	112	82	94
CC(=O)Nc1cccc(NC(=O)c2c(-c3ccccc3)c(-c3ccccc3)nn(C)c2=O)c1	-25	101	112	87
COc1ccc(-c2nn(CCCC(=O)NCc3ccccn3)c(=O)c3noc(C)c23)cc1	-9	99	x	x
CC(=O)SCC(C)C(=O)Nc1ccccc1 (stereo unspecified)	-7	97	93	76
CCOC(=O)C1CCCN(C(=O)CSc2nc(N)c3ccccc3n2)C1 (stereo unspecified)	0	x	88	88
COc1ccc(CNC(=O)CN2C(=O)CCn3nc(-c4cn(C)c5ccccc45)cc32)cc1	x	104	91	63
O=C(Nc1cc(Cl)cc(Cl)c1)c1ccc(F)c(S(=O)(=O)NC2CCCCC2)c1	x	101	96	86
Cc1cccc(-c2nc(SCC(=O)Nc3ccc4c(c3)OCCO4)c(-c3ccccc3)[nH]2)c1	-15	99	109	69
CCOC(=O)C1CCCN(C(=O)CCS(=O)(=O)c2cc3c(cc2Cl)NC(=O)CO3)C1 (stereo unspecified)	x	101	93	100
CC1CCCN(CC(C)(C)N)C1 (stereo unspecified)	-9	104	91	83
CC(C)(C)C(=O)NCc1ccc(C(=O)CSc2nnc(-c3cccs3)n2C2CC2)s1	-11	x	90	93
CCOC(=O)c1c(-c2ccccc2)oc2c1cc(OC(=O)c1ccc(S(=O)(=O)N(C)C)cc1)c1ccccc12	-7	103	x	x
Cc1cc(C)c2c(c1)c(C)cc1nnc(SCC(=O)c3ccc(F)cc3)n12	-20	104	114	79
O=C(CCC(=O)N1CCOc2ccccc21)Nc1ccccc1Br	-16	99	89	87
O=C1CCCCCN1Cc1nnc(SCN2C(=O)c3ccccc3C2=O)n1-c1ccccn1	-27	x	97	92
CCOC(=O)C1CCCN(C(=S)Nc2cccc(Cl)c2)C1 (stereo unspecified)	x	105	118	82
Cc1cccc(OCc2nnc(SCCN3C(=O)c4ccccc4C3=O)o2)c1	13	x	78	96
COc1ccc2c(-c3cccnc3)cc(=O)[nH]c2c1	-8	x	90	92
CCCCNS(=O)(=O)c1ccc2c(c1)nc(C1CCN(S(=O)(=O)c3cccs3)CC1)n2CCCC	14	x	126	108
CCCCc1ccc(N(C(C)=O)c2cc3c([nH]c4ccc(CCCC)cc43)c3c2C(=O)c2ccccc2C3=O)cc1	6	102	x	x
Cc1ccc(NC(=O)CC(C)S(=O)(=O)c2ccc3c(c2)SCC(=O)N3)cc1 (stereo unspecified)	x	193	94	81
Cc1ccccc1NC(=S)N(CCC(C)C)C(C)c1ccncc1 (stereo unspecified)	x	101	89	84
CCC(C(=O)Nc1nc2nccc(C)n2n1)c1ccccc1 (stereo unspecified)	-18	99	75	82

Next part.
SMILES	HCMV UL50-53 inh	GIV-Gai inh	Sa growth 42C	Sa growth 42C second temp
COc1cccc(N2CCN(Cc3cc(=O)oc4cc(C)ccc34)CC2)c1	-26	98	100	84
COc1ccc(/C=C\c2onc(C)c2S(=O)(=O)N2CCC(C(=O)N3c4ccccc4CC3C)CC2)cc1 (stereo unspecified)	-20	105	x	x
Cc1cc(C)cc(-n2ccn3c(CCCC(=O)N4CCN(c5ccccn5)CC4)nnc3c2=O)c1	-16	100	x	x
CCN(CC(=O)NCc1cccs1)C(=O)c1ccc(N2CCCC2=O)cc1	14	x	100	89
Cc1ccc(N2C(=O)CS/C2=C(/C#N)C(=O)NCC2CCCO2)cc1 (stereo unspecified)	-27	x	99	87
Cc1cccc(-n2c(N)cc(=O)nc2SCC(=O)Nc2ccc(F)cc2)c1C	-13	101	98	91
CCc1c(C)c(C#N)c2nc3ccccc3n2c1NCCC(C)C	x	98	92	73
Cc1nnc(SCCn2c(Br)nc3c2c(=O)[nH]c(=O)n3C)s1	-5	98	93	86
Cc1ccc2ccc3cc(C(=O)Nc4cccc(Cl)c4)nc3c2[nH]1	-4	102	x	x
O=C(O)CNC(=O)c1ccco1	0	x	82	99
CCC1(C)CC(CC#N)(c2ccccc2OC)CCO1 (stereo unspecified)	5	104	110	75
CCC(=O)c1ccc(OCC(O)CN2CCOCC2)cc1 (stereo unspecified)	-14	110	104	96
CCOC(=O)/C(C#N)=N/Nc1sc(C(=O)OCC)c(C)c1C(=O)OCC	-24	101	82	63
O=C(Cn1ncc2c(=O)oc3ccccc3c21)Nc1ccccn1	-2	93	94	93
CCOc1ccc(N=C2SC(C(=O)Nc3ccccc3)CC(=O)N2Cc2ccc3c(c2)OCO3)cc1 (stereo unspecified)	-16	100	x	x
Cc1cn2c(=O)cc(COc3ccc(NC(=O)C(C)C)cc3)nc2s1	-16	99	x	x
C(=N\OCc1cccc(CO/N=C/c2ccco2)c1)/c1ccco1	-69	x	109	85
CCOC(=O)Cn1cc(Cl)ccc1=O	4	107	105	96
CC1CCc2c(sc3ncn(Cc4ccccc4Cl)c(=O)c23)C1 (stereo unspecified)	10	100&103	x	x
CC12C=CC(O1)C1C(=O)N(c3cc(C(F)(F)F)ccc3Cl)C(=O)C12 (stereo unspecified)	4	106	x	x
Cc1c(C(=O)Nc2ccccc2Br)oc2ccc(S(=O)(=O)N3CCCC3)cc12	x	100	104	80
COc1cc(C2NC(=O)N(C)C(C)=C2C(=O)OC2CCCCCC2)cc(Cl)c1O (stereo unspecified)	8	106	x	x
CCC(C)NC(=O)c1ccc(Cn2c(SCc3cccc(OC)c3)nc3ccncc32)cc1 (stereo unspecified)	0	103	x	x
Cc1ccc(S(=O)(=O)c2ccc(C(=O)O)cn2)cc1	-25	100	x	x
COc1ccc(C)cc1NS(=O)(=O)c1ccc2c(c1)[C@H]1C=CC[C@H]1[C@@H](c1cccc(Cl)c1)N2	-35	125	107	84
Cc1ccsc1C(=O)OCC(=O)N(C)c1ccccc1	-36	x	139	81
Cc1ccc(NC(=O)C2CCCN(c3ncnc4onc(-c5ccc(F)cc5)c34)C2)c(Cl)c1 (stereo unspecified)	x	105	102	90
O=c1cc(CSc2nc3ccccc3s2)[nH]c2nc3ccccc3n12	15	99	x	x
COc1ccc(N2CC(NC(=O)c3ccc(S(=O)(=O)N4CCCCC4)cc3)CC2=O)cc1OC (stereo unspecified)	x	103	99	99
CC1Cc2ccccc2N1C(=O)CSc1nc2ccc(NC(=O)COc3ccccc3)cc2s1 (stereo unspecified)	-14	100	102	78
CC1(C)C2CC=C(/C=N/NC(=O)NC3CCCCC3)C1C2 (stereo unspecified)	-3	x	102	89
COc1ccc(-c2ccc(SCc3nc(-c4ccc(Br)cc4)no3)nn2)cc1OC	-13	101	x	x
Cc1cccc(C)c1OC(=O)C(C)N1C(=O)c2ccccc2C1=O (stereo unspecified)	-17	101	98	85
CC(NC(=O)c1ccc(-n2cccc2)cc1)c1ccccc1 (stereo unspecified)	-36	x	96	91
c1ccc2c(c1)nc1n2CN(C2CCCCCC2)CN1	1	102	84	93
O=C(CC1SCCNC1=O)Nc1ccccc1 (stereo unspecified)	-10	98	91	88
O=C(NCCc1c[nH]c2ccc(Cl)cc12)c1cc2n(n1)CCCN(Cc1ccc(Cl)cc1)C2=O	4	104	x	x
CCc1ccccc1NC(=O)CC(c1ccc(F)cc1)N1Cc2ccccc2C1=O (stereo unspecified)	x	101	101	101
O=C(c1cccs1)c1coc2c1cc(O)c1ccccc12	-16	102	148	115
O=c1[nH]cc(S(=O)(=O)NC2CCCC2)c(=O)[nH]1	-22	109	x	x
CCOC(=O)c1c(NC(=O)COc2ccc(Cl)cc2)sc(C(=O)Nc2cccc(Cl)c2C)c1C	-11	101	x	x
CC(C)n1cnc2nc(CSc3ccc(NC(=O)C(C)(C)C)cc3)cc(=O)n21	-33	99	x	x

Compounds were not picked by outcome (roughly 0.83% active in at least one column).
